High-throughput results from PubChem.
Vaccinia mCherry: vaccinia inhibition (mCherry reporter); Vaccinia virus mCherry reporter infection, fluorescence; about a quarter of the inactives have no number; Potency, µM (highest dose often 36.5 µM), for inactives: at the top dose activity change, negative = inhibition, hits mostly inhibitors; 0.63% of 310,000 active; active = well fitted inhibition curve with a large enough effect; inconclusive = small, poorly fitted or top-dose-only effect; inactive = no such curve, though single readings can be large or run the other way; tested in A549 cells; note: nearly all actives have a fitted effect of over 35% in size; inactives centre near -10
VACV Venus inh: inhibitors of vaccinia virus (Venus reporter) | AID 720580 | Potency, µM (highest dose often 36.5 µM), for inactives: at the highest dose activity change, negative = inhibition, usual class: inhibitors | Vaccinia virus Venus reporter expression, fluorescence | 0.46% of 330,000 active; active means well fitted inhibition curve with a large enough effect; inconclusive means small, poorly fitted or top-dose-only effect; inactive means no such curve, though single readings can be large or run the other way; tested in A549 cells; note: nearly all actives have a fitted effect of over 30% in size; inactives centre near -10
* marks the source's active call; other numbers are inactive results; i = inactive; ? = inconclusive; · = no result given; [ ] = remark or other dose. % is set by controls: 0 for no effect and ±100 for the full control effect; potency is the fitted concentration of half-maximal effect.

SMILES	Vaccinia mCherry	VACV Venus inh
FC(F)(F)c1cccc(-c2cn[nH]c2C2CCCN(Cc3cccn3-c3ccccn3)C2)c1 (configuration not stated)	-13%	6%
Cc1ccccc1CN1C(=O)c2ccccc2C1c1nnnn1Cc1ccccc1 (configuration not stated)	-10%	1%
COc1ccc(S(=O)(=O)N2CCOC2CNC(=O)C(=O)NCCN2CCOCC2)cc1OC (configuration not stated)	i	-9%
Nc1ncnc2c1[nH]c(=S)n2C1OC(CO)C(O)C1O (configuration not stated)	34%[activator]	7%
Cc1cc(C)n2nc(CNC(=O)c3cccc(Cl)c3)nc2n1	-8%	-15%
O=C(Nc1ccc(C(F)(F)F)cc1)N1CCC(N2CCCCC2)CC1	-18%	-17%
COc1ccc2nc3n(c(=O)c2c1)-c1cc2ccccc2cc1C(=O)NC3Cc1ccc(O)cc1 (configuration not stated)	?	?
CSc1ncc(Cl)c(C(=O)Nc2c(C(=O)c3ccc(Cl)cc3)oc3ccccc23)n1	-13%	2%
CC(=O)NC1C(OCc2cccc(Br)c2)OC(COC(C)=O)C(OC(C)=O)C1OC(C)=O (configuration not stated)	-2%	2%
CC(C)CCOc1ccc(C2=NNC(=O)CC2)cc1	i	-5%

Part of the list above, as a markdown table.
| molecule | Vaccinia mCherry | VACV Venus inh |
| --- | --- | --- |
| COc1ccc(S(=O)(=O)N2CCOC2CNC(=O)C(=O)NCCN2CCOCC2)cc1OC (configuration not stated) | i | -9% |
| Nc1ncnc2c1[nH]c(=S)n2C1OC(CO)C(O)C1O (configuration not stated) | 34%[activator] | 7% |
| Cc1cc(C)n2nc(CNC(=O)c3cccc(Cl)c3)nc2n1 | -8% | -15% |
| O=C(Nc1ccc(C(F)(F)F)cc1)N1CCC(N2CCCCC2)CC1 | -18% | -17% |
| COc1ccc2nc3n(c(=O)c2c1)-c1cc2ccccc2cc1C(=O)NC3Cc1ccc(O)cc1 (configuration not stated) | ? | ? |
| CSc1ncc(Cl)c(C(=O)Nc2c(C(=O)c3ccc(Cl)cc3)oc3ccccc23)n1 | -13% | 2% |
| CC(=O)NC1C(OCc2cccc(Br)c2)OC(COC(C)=O)C(OC(C)=O)C1OC(C)=O (configuration not stated) | -2% | 2% |

Next structures
SMILES	Vaccinia mCherry	VACV Venus inh
O=C(/C=C/c1ccco1)NCC1OCCc2ccccc21 (configuration not stated)	i	2%
N[C@@H](C(=O)N[C@@H]1C(=O)N2C(C(=O)O)=C(Cl)CS[C@H]12)c1ccccc1	-13%	-9%
Cc1ccc(S(=O)(=O)N2CC3(O)CN(C(=O)OC(C)C)N(C(=O)OC(C)C)CC3(OC(=O)NC3CCCC3)C2)cc1 (configuration not stated)	i	-18%
CCS(=O)(=O)n1nc(-c2ccccc2)cc1N	i	-6%
CCCC(=O)Nc1ccc2c(c1)nc(CCN1CCC(C)CC1)n2C	-3%	-7%
O=C(Nc1cccc(F)c1)Nc1nnc([C@@H]2C[C@H](O)[C@@H](CO)O2)s1	35%[activator]	-3%
Cc1cccc(-n2cc(CNCCN3CCOC3=O)c(-c3cccc(F)c3)n2)c1	i	-29%
COc1cccc(-c2nc(N3CCN(c4ccccc4)CC3)c3ccccc3n2)c1O	·	-7%
O=C(OCc1nnn(Cc2ccccc2)c1-c1c(COC(=O)c2ccccc2)nnn1Cc1ccccc1)c1ccccc1	?	3%
Cc1cc(=O)n2c3ccccc3n(CC(O)CN3CCC(C)CC3)c2c1C#N (configuration not stated)	36%[activator]	-5%
Cc1ccc2c(c1)c(=O)c1ccccc1n2CCCC(=O)Nc1cc(Cl)ccc1C	-20%	-14%
CCOC(=O)[C@H]1[C@H]2COc3ccc(Cl)cc3[C@@H]2N2C(=O)c3cc(Br)ccc3NC(=O)[C@@]12C	i	-26%
O=C(O)c1ccc(-c2ccc(/C=C3\NC(=O)N(Cc4ccc(Cl)cc4)C3=O)o2)cc1Cl	-6%	-12%
CC(Oc1ccc(Cl)cc1)C(=O)N/N=C/c1ccsc1 (configuration not stated)	-11%	-5%
COCCOc1cc2ncnc(N3CCC(C(=O)O)CC3)c2cc1OCCOC	-10%	-7%
NCCCC[C@H]1CNC(=S)N1CCCCC1CCCCC1	-13%	?
C=CCNC(=O)c1cnn(-c2ccccc2)c1-c1ccccc1	-6%	-1%
O=C(NCc1ccc2c(c1)OCO2)c1ccc2c(c1)S(=O)(=O)c1ccccc1C2=O	?	-12%
CCOC(=O)N1CCN(C(=O)c2ccc(Cn3c(=S)[nH]c4ccc(Br)cc4c3=O)cc2)CC1	i	-21%
COc1ccc(OC)c(C=C2CCc3ccccc3C2=O)c1	2%	-22%
O=C(Cn1c(SCCOc2ccccc2Cl)nc2ccccc21)N1CCOCC1	1%	-2%
NC(=O)CC(NC(=O)c1cccc(Br)c1)c1ccc(NC2CCCCCCCCCCC2)c([N+](=O)[O-])c1 (configuration not stated)	-9%	-8%
CC(=O)Oc1ccc(/C=N/NC(=O)c2ccc(N(C)S(=O)(=O)c3ccccc3)cc2)cc1	?	-13%
Cc1cccnc1NC(=O)CCCc1c[nH]c2ccccc12	-6%	-10%
O=C(O)C1CC(O)CN1c1nc(Cl)ccc1[N+](=O)[O-] (configuration not stated)	0%	-2%
COC(=O)CN1C(=O)[C@H]2[C@@H](/C=C/c3ccccc3)N3C(=O)CN(Cc4ccccc4)C(=O)[C@@]3(Cc3ccccc3)[C@H]2C1=O	-23%	-17%
CC(=O)Nc1ccc(C=NNc2ccc([N+](=O)[O-])cn2)cc1	-13%	-11%
CC(=O)C[C@H](O)CC(=O)[C@H]1OC(=O)CCCCC/C=C/Cc2ccccc21	-5%	-14%
Cc1cc(C)c(S(=O)(=O)N2CCCCC2CCNC(=O)C(=O)NC2CC2)c(C)c1 (configuration not stated)	?	24%
NS(=O)(=O)c1cnccc1Nc1ccc(Cl)c(Cl)c1	i	-14%
COc1ccccc1S(=O)(=O)N(C)C[C@H]1Oc2cc(Br)ccc2S(=O)(=O)N([C@@H](C)CO)C[C@H]1C	-23%	-25%
CCCCn1c(=O)n(C)c(=O)c2c(C(F)(F)F)cc(-c3ccncc3)nc21	i	-13%
Cc1nn(-c2ccc(F)cc2)c(Cl)c1/C=C1\C(=O)Nc2ccccc21	-20%	-16%
COc1ccccc1CCNC(=O)C(=O)c1cn(CC(=O)N2CCOCC2)c2ccccc12	-11%	-7%
COc1ccc(C2C3=C(CC(C)(C)CC3=O)N(C)C3=C2C(=O)CC(C)(C)C3)cc1	-10%	-8%
O=C(NCCN1CCCCC1)c1cc(OCC(F)(F)F)ccc1OCC(F)(F)F	?	-4%
Cc1cc(=O)[nH]c(N/N=C/c2ccc(F)cc2)n1	-10%	-15%
CN(C(=O)c1cc(-c2ccccc2O)on1)c1ccccc1	-21%	-10%
COc1ccc(OC)c(NC(=O)CC2C(=O)NCCN2C(=O)C(F)(F)F)c1 (configuration not stated)	-4%	-3%
CN1CC(C(=O)c2ccc(Cl)cc2)C(c2ccccc2)C1 (configuration not stated)	-7%	-9%
CSc1sc(C(=O)NC(=O)NCc2cccnc2)c(C)c1-c1ccon1	-4%	-18%
O=C(c1cccs1)N(C(=O)c1cccs1)c1ccccn1	-14%	-7%
COc1ccc(-c2c(-c3ccccc3OC)oc3ccccc23)cn1	?	1%
COc1cccc(N2CCN(C(=O)C3CCCN(S(=O)(=O)c4ccc5c(c4)oc(=O)n5C)C3)CC2)c1 (configuration not stated)	-20%	-20%
CSc1ccc(CCNC(=O)C2CCCN(c3ncnc4c3nc3n4CCCCC3)C2)cc1 (configuration not stated)	-9%	-19%
CC(C)NC(=O)CN1CCC(O)(c2ccccc2)CC1	i	-2%
CCOc1cc2[nH]c(=O)n(CCCC(=O)N(C)Cc3ccccc3)c(=O)c2cc1OCC	-26%	-9%
COc1ccc(S(=O)(=O)N2CCN(CCc3ccccc3)CC2)cc1	i	-2%
CC(C)(C)c1ccc(S(=O)(=O)N2CCN(CCC#N)CC2)cc1	-9%	4%
Cc1cccc(CCNC(=O)c2cc(S(=O)(=O)N3CCCC3)cn2C)c1	i	-13%

The last 4 compounds of the section above lead into the next.
SMILES	Vaccinia mCherry	VACV Venus inh
CCOc1cc2[nH]c(=O)n(CCCC(=O)N(C)Cc3ccccc3)c(=O)c2cc1OCC	-26%	-9%
COc1ccc(S(=O)(=O)N2CCN(CCc3ccccc3)CC2)cc1	i	-2%
CC(C)(C)c1ccc(S(=O)(=O)N2CCN(CCC#N)CC2)cc1	-9%	4%
Cc1cccc(CCNC(=O)c2cc(S(=O)(=O)N3CCCC3)cn2C)c1	i	-13%
O=C(CCSCCC(=O)NN=Cc1cccc(Cl)c1)NN=Cc1cccc(Cl)c1	i	-19%
CC(=O)N1CCc2cc(S(=O)(=O)N3CCCCCC3)ccc21	-1%	-14%
COc1ccc(COC(=O)C2CCN(S(=O)(=O)c3ccc(Cl)cc3)CC2)cc1	-25%	-1%
Cc1ccnc(SCC(=O)c2ccc([N+](=O)[O-])cc2)n1	-21%	-16%
CCCCN(C)CC(O)Cn1cc(/C=C/C(=O)c2ccc(C)cc2)c2ccccc21 (configuration not stated)	?	?
CN(C)c1ccc(/C=C(\C#N)c2nc(-c3ccc(Cl)c(Cl)c3)cs2)cc1	-9%	3%
CSc1ccc(NC(=O)NN(c2ccccc2)C2CCS(=O)(=O)C2)cc1 (configuration not stated)	i	4%
COC(=O)c1cc(C(=O)Nc2ccc(Cl)cn2)cc([N+](=O)[O-])c1	i	1%
O=C(O)c1ccccc1S(=O)(=O)c1ccccc1CO	·	-1%
O=C(NNC(=O)C1CC(=O)N(c2ccc3c(c2)OCCO3)C1)c1ccc(F)cc1 (configuration not stated)	-10%	-12%
Cc1ccc(S(=O)(=O)NC(=O)N(CCC#N)Cc2ccccc2)cc1	i	1%
COc1ncccc1-c1nnn(-c2ccc(Cl)nc2)n1	-9%	-6%
COc1ccc(/C=C/c2c(-c3ccc(OC)cc3)oc3ccccc23)cc1	i	-9%
Cc1ccc(S(=O)(=O)N(CCc2ccccc2)c2ccc3c(c2)C2CC3CCN2C(=O)OCc2ccccc2)cc1 (configuration not stated)	-7%	-13%
CC(=O)Nc1ccc2nc(NC(=O)CS(=O)(=O)c3ccccc3)sc2c1	-14%	-8%
CCOC(=O)NC1=NCC(C)S1 (configuration not stated)	-15%	6%
COc1ccc(-c2oc(=O)c3cc(OC)c(OC)cc3c2C#C[C@]2(O)CC[C@H]3[C@@H]4CCc5cc(OC)ccc5[C@H]4CC[C@@]32C)cc1	-25%	-7%
COCCNC(=O)C(c1ccc(F)cc1)N(C(=O)CCC(=O)Nc1ccccn1)c1cccc(C)c1 (configuration not stated)	-16%	-6%
O=C(C1CC1)N1CCc2cc(Br)cc(S(=O)(=O)N3CCN(c4ccccc4F)CC3)c21	-6%	-3%
Cc1nnc(SCC(=O)NC(C)(C)C)n1NCc1ccc(Cl)cc1	-9%	-1%
CC(C)(C)[C@H]1COC(=O)CCC/C=C/C[C@H](CC(=O)NCCO)C(=O)N1	-8%	7%
CCOc1ncccc1C(=O)OCC(=O)c1ccc(C)c(C)c1	i	-5%
O=S(=O)(Nc1cccc(S(=O)(=O)N2CCCC2)c1)c1ccc(Br)cc1	-16%	0%
Cc1ccc(-c2cc3ncc4c(n3n2)-c2cc(C)ccc2OC4)cc1	-5%	-11%
Cn1c(CNC(=O)c2ccco2)nnc1SCC(=O)N1CCN(c2ccccc2F)CC1	i	-16%
O=C(Cn1cncn1)c1ccc(F)cc1F	-15%	5%
CCCCOC(=O)c1ccc(NC(=O)c2cnccn2)cc1	-3%	-13%
COc1ccccc1CNC(=O)COC(=O)c1cccc(S(=O)(=O)N2CCCC2)c1	-11%	-8%
O=C(O)C1C2CC3C(OC(=O)C31)C2Cl (configuration not stated)	-2%	-7%
O=C(NCc1ccccc1)c1cc(C2CCCN(C(=O)c3cccs3)C2)on1 (configuration not stated)	0%	-16%
Cc1cc(OCC(=O)OCC(=O)N2CCCCC2)ccc1Cl	i	-6%
CCOC(=O)c1c(C)[nH]c(N=Nc2ccccc2C)c1C	-26%	-21%
CC(=O)N1CCN(S(=O)(=O)c2cccc(C(=O)OCc3ccc(C(C)(C)C)cc3)c2)CC1	-25%	-23%
Cc1ccc(-c2nc(N)c3c(-c4ccc(C)cc4)nn(C(C)(C)C)c3n2)cc1	i	-10%
COc1cc(C)c(NC(C)C(=O)c2c(C)[nH]c3ccccc23)cc1OC (configuration not stated)	-20%	-16%
Cc1cc(C)cc(NS(=O)(=O)c2cc3c(cc2C)NC(=O)CO3)c1	-4%	-14%
COc1ccc(Nc2ncnc3ccccc23)cc1	·	-6%
COC(=O)c1c(NC(=O)CCCOc2ccccc2C)sc2c1CCC(C)C2 (configuration not stated)	-5%	11%
O=C(NCC(c1ccco1)N1CCN(c2ccc(F)cc2)CC1)OCc1ccccc1 (configuration not stated)	-10%	-20%
CCn1cc(C(=O)N2CCN(c3cc(C)ccc3C)CC2)c(=O)c2cc(S(=O)(=O)N(C)C3CCCCC3)ccc21	?	?
CC(C)C(NS(=O)(=O)c1cccc2nsnc12)C(=O)NCCC1=CCCCC1 (configuration not stated)	i	-14%
COc1ccc(NC(=O)NNC(=O)c2ccc(-c3ccccc3)cc2)cc1	-16%	-20%
O=C(O)CCC(=O)N1CN2CN(C(=O)CCC(=O)O)CC([N+](=O)[O-])(C2)C1	-9%	-10%
CC(C)c1ccc(S(=O)(=O)N2CCC3(CC2)OCCO3)cc1	-24%	-9%
CC(=O)C1=C(O)CC(c2ccccc2)CC1=NCCc1ccccc1 (configuration not stated)	-2%	-13%
COC(=O)[C@@H]1C[C@@]2(O)[C@H](O)[C@H](O)[C@H](O)C[C@H]2N1C/C=C/c1ccccc1	i	-9%
COc1cc(/C=C/C(=O)N2CC(C)OC(C)C2)cc(OC)c1OC (configuration not stated)	i	0%
